gsp agonist: gsp mutant agonism; gsp mutant cells, cAMP HTRF, 30 min; control for the full effect not named in the record; Potency, µM (doses to about 76.9 µM), inactives show top-dose activation (cAMP increase), hits mostly activators; 0.13% of 340,000 active; AID 624287; active = well fitted activation curve with a large enough effect; inconclusive = small, poorly fitted or top-dose-only effect, or another doubt; inactive = no such curve, though single readings can be large or run the other way; cell line not stated here;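 also: phosphodiesterase inhibitor Ro 20-1724 added with compounds to block cAMP breakdown; potency is read from the fitted curve at half-maximal effect; nearly all actives have a fitted effect of over 60% in size; about a fifth of the inactives were tested at one dose only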
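Cells in DMEM/10% FBS with G418 were pretreated with compounds in DMSO plus […] (300 uM stock) for 30 min at 37C. cAMP was measured by HTRF (cAMP-d2 plus anti-cAMP antibody-K) after 30 min at room temperature.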
D2 agonist: agonists of human D2 dopamine receptor (beta-arrestin) | 0.084% of 360,000 active | P14416 | DiscoveRx PathHunter D2 beta-arrestin, luminescence, 90 min; 100% = 57 uM dopamine signal | AID 624465 | activation, % (no concentration beside the values); in the data active = activation above about 40%; inconclusive = about 15% to 40%; inactive = below about 15%; also: compound concentration not given in the record; the text of the record calls up to 30% inactive
Target sequence (P14416 whole entry, looked up): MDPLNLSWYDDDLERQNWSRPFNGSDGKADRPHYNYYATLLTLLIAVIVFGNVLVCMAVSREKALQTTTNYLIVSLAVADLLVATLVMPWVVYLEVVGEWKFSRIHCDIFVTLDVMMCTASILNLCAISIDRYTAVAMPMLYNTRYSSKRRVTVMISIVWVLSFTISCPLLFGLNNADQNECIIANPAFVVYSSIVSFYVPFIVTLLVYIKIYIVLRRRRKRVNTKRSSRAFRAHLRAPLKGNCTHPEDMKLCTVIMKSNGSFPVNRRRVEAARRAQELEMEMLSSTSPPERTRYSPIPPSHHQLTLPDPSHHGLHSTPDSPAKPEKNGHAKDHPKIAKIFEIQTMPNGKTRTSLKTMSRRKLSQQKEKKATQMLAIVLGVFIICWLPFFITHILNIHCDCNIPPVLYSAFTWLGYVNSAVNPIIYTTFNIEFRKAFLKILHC
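Agonist mode: compounds alone added to overnight-plated D2 PathHunter cells for 90 min at 37 C, with 57 uM final dopamine (EC100) defining full response. Beta-arrestin recruitment detected by chemiluminescent reagent, read after 1 h at ambient temperature.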
gsp antag: gsp mutant antagonism; 0.4% of 340,000 active; Potency, µM (series often up to 76.9 µM), inactives show top-dose activity change, negative = inhibition, usual class: inhibitors; AID 624288; gsp-mutant cells, cAMP HTRF, 30 min; control for the full effect not named in the record; active = falling curve of any shape with a large fitted effect; inconclusive = falling curve, mostly with a smaller effect; inactive = flat or rising curve; cell line not stated here;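 also: intracellular cAMP measured with PDE inhibitor Ro 20-1724 present during compound exposure; potency is read from the fitted curve at half-maximal effect; % is scaled to controls: 0 for no effect and ±100 for the full control effect; nearly all actives have a fitted effect of over 65% in size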
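Cells in G418 medium, seeded 16-24 h, 37C; buffer exchange to DPBS + 1 mM CaCl2, 0.5 mM MgCl2, 0.05% BSA; cpds in DMSO + […] (300 uM stock), 30 min 37C; HTRF cAMP detection.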
Sfp inh: inhibitors of Bacillus subtilis Sfp phosphopantetheinyl transferase; Potency, µM, inactives show max response, negative = inhibition, most hits filed as inhibitors; AID 1490; 3.5% of 310,000 active; Q9F4F7; Biochemical Sfp PPTase activity, qHTS; active = well fitted inhibition curve with a large enough effect; inconclusive = small, poorly fitted or top-dose-only effect, or another doubt; inactive = no such curve, though single readings can be large or run the other way;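 also: the enzyme is Sfp with the accession as filed and its product quenches rhodamine fluorescence; potency is read from the fitted curve at half-maximal effect; 0% = enzyme reaction without inhibitor and -100% = no enzyme wells; top concentration of the series not given in the record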
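Compounds were incubated with enzyme (final 15 nM) for 15 min at room temperature before substrate addition started the reaction. Fluorescence at 525 nm excitation, 598 nm emission was recorded immediately and after 30 minutes.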
PINK1 modulator: PINK1 expression modulation; Potency, µM (doses to about 76.6 µM), without a hit: at the highest dose activation (PINK1 increase), actives largely listed as activators; 0.2% of 410,000 active; PINK1 immunofluorescence, high-content cytometry, 24 h; active = well fitted activation curve with a large enough effect; inconclusive = small, poorly fitted or top-dose-only effect; inactive = flat fitted curve, though single readings scatter; cell line not stated here;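 also: potency is read from the fitted curve at half-maximal effect; % of control where 0% means no effect; nearly all actives have a fitted effect of over 65% in size; a mitochondrial uncoupler was the plate control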
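Stable cell line treated 24 h with compounds at 5 concentrations (CCCP controls), then fixed and immunostained for PINK1 plus nuclear and cell stains; PINK1 immunofluorescence quantified by laser-scanning microplate cytometry.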
Menin-MLL FL inh: inhibitors of human menin-MLL interaction, wild-type MLL peptide; Fluorescence polarization, fluorescein-MLL peptide displacement from menin; 290,000 tested, under 10 active; FP activity change, % at 61.4 µM; inconclusive = falling polarisation curve, or a change in total fluorescence; inactive = total fluorescence flat and polarisation flat or rising; no compound was filed as active; the % refers to the polarisation; negative = inhibition;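 also: % of control where 0% means no effect; inhibitors lower the polarisation; unlabelled MLL peptide was the positive control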
ClpP mod: qHTS Assay for Activators of ClpP. ATP-dependent Clp protease proteolytic subunit (Bacillus subtilis (strain 168)), P80244. purified B. subtilis ClpP, FRET peptide cleavage, 20 min. Potency, µM (top dose mostly 57.5 µM), for inactives: at the highest dose activity change, negative = active. 1.9% of 340,000 active. AID 651965, 2013; active = well fitted falling curve with a large enough effect; inconclusive = small, poorly fitted or top-dose-only effect; inactive = no such curve, though single readings can be large or run the other way; also: potency is read from the fitted curve at half-maximal effect; the source files actives as falling curves though it sought activators and does not explain the sign; nearly all actives have a fitted effect of over 65% in size; many hits overshoot -100%
Target sequence (P80244 whole entry, looked up): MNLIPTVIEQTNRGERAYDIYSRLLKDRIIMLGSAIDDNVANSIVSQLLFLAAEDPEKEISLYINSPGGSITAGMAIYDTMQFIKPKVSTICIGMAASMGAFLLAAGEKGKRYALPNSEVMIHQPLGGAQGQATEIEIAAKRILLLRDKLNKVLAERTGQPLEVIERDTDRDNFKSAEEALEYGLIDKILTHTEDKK
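FRET quenching reversal measured ClpP activation: 10 microg/mL B. subtilis ClpP at pH 8 with the FRET-FV decapeptide, read at 430 nm after 320 nm excitation. The 20-min minus 0-min signal was scaled between DMSO/no-enzyme wells and ADEP (5.8 microM final).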
An asterisk follows results filed as active; & = joins results of further samples; [ ] = another dose, or the depositor's remark. Only part of the results is shown, so the mix of outcomes need not match the whole.

Results for O=C1C(Cl)=CC(=Nc2ccc(O)cc2)C=C1Cl ?
gsp agonist: -12%; D2 agonist: 8.6; gsp antag: -20%; Sfp inh: inconclusive; PINK1 modulator: 11%; Menin-MLL FL inh: 0.1; ClpP mod: 1.4%

How did COC(=O)C1=C(c2ccccc2OCc2ccccc2)C[C@@H]2CC[C@H]1N2C do in these assays?
gsp agonist: -45%[inhibitor]; D2 agonist: -8.1; PINK1 modulator: 0.1%; ClpP mod: -2.9%

Results for O=C1CN(C(=O)CN2CCCCC2)C(c2ccccc2)c2cc(Br)ccc2N1 (configuration not stated) ?
gsp agonist: -3%; D2 agonist: -2.2; gsp antag: 2%; Sfp inh: 13%; PINK1 modulator: -1.4%; Menin-MLL FL inh: 1.2; ClpP mod: -0.7%

Results for CN(C(=O)c1ccc(Cl)nc1)C1(c2ccccc2Cl)CCCCC1=O (configuration not stated) ?
gsp agonist: 1%; D2 agonist: -1.1; gsp antag: 4%; Sfp inh: 12%; PINK1 modulator: 0.9%; Menin-MLL FL inh: 1.0

How did C(=N\NC1=NCCCCC1)/c1c[nH]c2ccccc12 do in these assays?
gsp agonist: 21%[15.4 µM]; D2 agonist: 0.6; gsp antag: 0%; Sfp inh: 1%; PINK1 modulator: -2.4%; Menin-MLL FL inh: -3.5

How did CC1CCC(C(C)C)C(OC(=O)Cn2c(COc3ccccc3)[n+](C)c3ccccc32)C1 (configuration not stated) do in these assays?
gsp agonist: -13%[15.4 µM]; D2 agonist: -14; gsp antag: 5%; Sfp inh: inconclusive; PINK1 modulator: -1.3%; Menin-MLL FL inh: -19

What do the screens show for `Cc1nn(-c2ccccc2)c2c1P(=O)(O)/C(=C1\N(C)c3ccccc3C1(C)C)C=N2`?
gsp agonist: -43%[inhibitor]; D2 agonist: -7.0; gsp antag: -4%; Sfp inh: -10%; Menin-MLL FL inh: 3.2; ClpP mod: 1.6%

What do the screens show for `CCOC(=O)c1nc2ccccc2c(=O)n1-c1cccc(C)c1`?
gsp agonist: 24%; D2 agonist: -1.8; gsp antag: -4%; Sfp inh: 8%; PINK1 modulator: -0.4%; Menin-MLL FL inh: -1.3; ClpP mod: -1.4%

How did COc1ccc(C(CC(=O)N2CCC3(CC2)OCCO3)NS(=O)(=O)c2ccc(F)cc2)cc1 (configuration not stated) do in these assays?
gsp agonist: -26%; D2 agonist: 0.4; gsp antag: -5%; Sfp inh: 17%; PINK1 modulator: 2.1%; Menin-MLL FL inh: -2.3; ClpP mod: 22µM*

Results for CCCCCc1nc2ccccc2c(=O)n1-c1ccccc1[N+](=O)[O-] ?
gsp agonist: -32%[inhibitor]; D2 agonist: -5.4; gsp antag: inconclusive; Sfp inh: inconclusive; PINK1 modulator: 2.3%; Menin-MLL FL inh: 2.2; ClpP mod: 0.9%

Results for c1coc(CNc2ncnc3nc[nH]c23)c1 ?
D2 agonist: 5.4; gsp antag: -5%; Sfp inh: -6%&1%&9%&19%; PINK1 modulator: 0.3%&-0.2%; Menin-MLL FL inh: inconclusive; ClpP mod: 2.3%&-1.7%

What do the screens show for `Cc1ncc(CN2CCCC(C(=O)c3cccc(Cl)c3)C2)s1` (configuration not stated)?
gsp agonist: 19%; D2 agonist: -1.8; gsp antag: -10%; Sfp inh: 17%; PINK1 modulator: 0.1%; Menin-MLL FL inh: -0.3; ClpP mod: 0.2%

Results for COCOC1CCC2C3CCC4=CC(=O)CCC4=C3C=CC12C (configuration not stated) ?
gsp agonist: -23%; D2 agonist: 13; gsp antag: -8%; PINK1 modulator: 0.8%; ClpP mod: -6.0%

Results for CCCCN1CC(O)=C(c2nc3ccccc3s2)C1=N ?
gsp agonist: 18%; D2 agonist: -3.4; gsp antag: 4%; Sfp inh: 6%; PINK1 modulator: 1.7%; Menin-MLL FL inh: 1.5; ClpP mod: -8.7%

How did O=c1[nH]c(O)c(C=Nc2cccc(F)c2)c(=O)[nH]1 do in these assays?
gsp agonist: -9%; D2 agonist: -2.3; gsp antag: -2%; Sfp inh: 1%; PINK1 modulator: 0.6%; Menin-MLL FL inh: 4.2; ClpP mod: -3.9%

Results for CN(C)Cc1c[nH]c2ccccc12 ?
gsp agonist: -45%; D2 agonist: -2.2; gsp antag: 9%; Sfp inh: 7%&13%&11%; PINK1 modulator: -0.1%; Menin-MLL FL inh: inconclusive; ClpP mod: -2.0%

How did O=C(c1cccs1)N1C2CCC1CC(O)(c1cccnc1)C2 (configuration not stated) do in these assays?
gsp agonist: 13%; D2 agonist: -2.6; gsp antag: 14%; Sfp inh: -1%; PINK1 modulator: -1.3%; Menin-MLL FL inh: 0.0; ClpP mod: -0.8%

Results for CCN(CC)CCNCC(=O)Nc1ccc(Cl)cc1C(=O)c1ccccc1 ?
gsp agonist: 1%; D2 agonist: -2.7; gsp antag: 9%; Sfp inh: 56µM*; PINK1 modulator: -0.3%; Menin-MLL FL inh: -0.6; ClpP mod: -1.4%

What do the screens show for `COc1cc(-n2c(=S)[nH]c3ccc(C)cc3c2=O)c(Cl)cc1Cl`?
gsp agonist: 3%; D2 agonist: -6.1; gsp antag: -7%; Sfp inh: 4%; PINK1 modulator: 4.6%; Menin-MLL FL inh: -2.0

What do the screens show for `CCCOc1ccccc1OCC(=O)N1CCN(CC(=O)N2CCOCC2)CC1`?
gsp agonist: -38%[inhibitor]; D2 agonist: 0.8; PINK1 modulator: -0.4%; ClpP mod: -3.9%

No new results follow: entries from further up.
What do the screens show for `Cc1ncc(CN2CCCC(C(=O)c3cccc(Cl)c3)C2)s1` (configuration not stated)?
gsp agonist: 19%; D2 agonist: -1.8; gsp antag: -10%; Sfp inh: 17%; PINK1 modulator: 0.1%; Menin-MLL FL inh: -0.3; ClpP mod: 0.2%

Results for COCOC1CCC2C3CCC4=CC(=O)CCC4=C3C=CC12C (configuration not stated) ?
gsp agonist: -23%; D2 agonist: 13; gsp antag: -8%; PINK1 modulator: 0.8%; ClpP mod: -6.0%

Later entries
Results for O=C1NC(=S)NC(=O)C1=Cc1cccn1-c1ccc(O)cc1 ?
gsp agonist: -52%[inhibitor]; D2 agonist: -7.8; gsp antag: -17%; Sfp inh: 18µM*; PINK1 modulator: -0.1%; Menin-MLL FL inh: 8.0; ClpP mod: 0.3%

What do the screens show for `CN1CCN(c2ccc([N+](=O)[O-])c(NCC3CCCO3)c2)CC1` (configuration not stated)?
gsp agonist: -49%[inhibitor]; D2 agonist: -6.4; gsp antag: -1%; Sfp inh: 5%; PINK1 modulator: 0.8%; Menin-MLL FL inh: 1.4; ClpP mod: -0.4%

How did COc1c(C=C2C(=O)NC(=O)NC2=O)c(CCN(C)C(=O)c2ccccc2)cc2c1OCO2 do in these assays?
D2 agonist: -4.0; gsp antag: -6%; Sfp inh: -7%; PINK1 modulator: -0.6%; Menin-MLL FL inh: -29; ClpP mod: 1.2%

Results for CCC(=O)N1CC(=O)Nc2ccc(F)cc2C1c1ccccc1 (configuration not stated) ?
gsp agonist: -33%[inhibitor]; D2 agonist: 0.2; gsp antag: 7%; Sfp inh: -7%; PINK1 modulator: 2.3%; Menin-MLL FL inh: -2.4; ClpP mod: -0.1%

What do the screens show for `COc1cccc(O)c1CN1CCCC(C(=O)c2sccc2C)C1` (configuration not stated)?
gsp agonist: 2%[15.4 µM]; D2 agonist: -3.8; Sfp inh: 15%; PINK1 modulator: -1.4%; Menin-MLL FL inh: -2.0

How did COc1ccc(OC)c(C(c2c(O)c3ccccc3oc2=O)c2c(C)n(C)n(-c3ccccc3)c2=O)c1 (configuration not stated) do in these assays?
gsp agonist: -2%; D2 agonist: -4.7; gsp antag: 8%; Sfp inh: -6%; PINK1 modulator: 1.4%&0.3%; Menin-MLL FL inh: -4.9; ClpP mod: -1.0%&-2.7%

How did COc1ccc(/C=C/C(=O)c2c(O)n(CCC3=CCCCC3)c(=O)[nH]c2=O)cc1OC do in these assays?
gsp agonist: -16%; D2 agonist: 5.6; gsp antag: inconclusive; Sfp inh: 3%; PINK1 modulator: 1.8%; Menin-MLL FL inh: 4.1; ClpP mod: -0.7%

What do the screens show for `O=c1[nH]c(=S)[nH]c(O)c1N=Nc1ccc2c(c1)OCO2`?
gsp agonist: -35%[inhibitor]; D2 agonist: -0.3; gsp antag: -23%; Sfp inh: 0%; PINK1 modulator: -0.3%; Menin-MLL FL inh: inconclusive; ClpP mod: 0.9%

Results for C=C(C=O)CC1CC(O)[C@]2(C)OC3CC4OC5C[C@]6(C)O[C@]7(C)CCC8OC9C[C@]%10(C)OC%11C(C)=CC(=O)OC%11CC%10OC9C[C@@H](C)C8OC7CC6O[C@]5(C)CC5OC5C4OC3CC2O1 (some centres not stated) ?
D2 agonist: -1.1; gsp antag: -2%; Sfp inh: 11%; PINK1 modulator: 9.6%; Menin-MLL FL inh: 2.1; ClpP mod: -1.3%

Results for COc1ccc(CCNC(=O)c2c(N)n(CCN3CCOCC3)c3nc4ccccc4nc23)cc1 ?
gsp agonist: -22%; D2 agonist: -0.4; gsp antag: 1%; Sfp inh: -23%; PINK1 modulator: 1.6%; Menin-MLL FL inh: 11; ClpP mod: -18%

How did CCOP(=S)(OCC)SCSP(=S)(OCC)OCC do in these assays?
gsp agonist: -15%; D2 agonist: -2.3; gsp antag: 4%; PINK1 modulator: 7.3%; ClpP mod: -1.6%

How did CC(c1ccccc1F)n1cc(C(=O)Nc2ccc3nc[nH]c3c2)nn1 (configuration not stated) do in these assays?
gsp agonist: -25%; D2 agonist: -0.5; gsp antag: -8%; Sfp inh: 20%; PINK1 modulator: 1.3%; Menin-MLL FL inh: 0.7; ClpP mod: 1.1%

How did CC1CN=C(Nc2ccc(F)cc2)S1 (configuration not stated) do in these assays?
gsp agonist: 1%[15.4 µM]; D2 agonist: -0.2; gsp antag: -4%; Sfp inh: 11%; PINK1 modulator: 0.1%; Menin-MLL FL inh: -8.8

What do the screens show for `C=CCn1c(O)c(C(CC)=Nc2cc(OC)ccc2OC)c(=O)[nH]c1=O`?
gsp agonist: -19%; D2 agonist: 0.9; gsp antag: -3%; Sfp inh: -18%; PINK1 modulator: 0.4%[38.3 µM]; Menin-MLL FL inh: -2.0; ClpP mod: 1.2%

Bioassay records as filed in PubChem.
